HPGD inh – blocks human HPGD enzyme activity; P15428; purified HPGD, NADH fluorescence kinetic, PGE2 substrate; Potency, µM, without a hit: at the top dose activity change, negative = inhibition, hits mostly inhibitors; 150,000 compounds, 4.3% hits; active = well fitted inhibition curve with a large enough effect (not every such curve was filed as active); inconclusive = small, poorly fitted or top-dose-only effect, or another doubt; inactive = no such curve, though single readings can be large or run the other way;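 note: top concentration of the series not given in the record; plate controls included wells without enzyme; inactives centre near -10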
Target sequence (P15428 whole entry, looked up): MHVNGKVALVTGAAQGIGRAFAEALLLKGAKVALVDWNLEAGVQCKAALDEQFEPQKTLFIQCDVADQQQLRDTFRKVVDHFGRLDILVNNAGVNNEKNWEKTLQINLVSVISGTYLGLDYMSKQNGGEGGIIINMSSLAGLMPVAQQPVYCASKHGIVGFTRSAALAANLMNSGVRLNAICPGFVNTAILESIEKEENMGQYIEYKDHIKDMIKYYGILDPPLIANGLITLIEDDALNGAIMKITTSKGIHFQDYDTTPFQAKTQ
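20 nM HPGD preincubated 15 min at room temperature with compound in 50 mM Tris-HCl pH 8, 0.01% Tween 20. Started with 1 mM NAD+ and 30 uM prostaglandin E2; NADH fluorescence (360/450 nm) read 5 times over 30-s intervals, last minus first.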
Starred values were filed as active, the others as inactive; & = joins results of further samples; [ ] = another dose, or the depositor's remark. % is set by controls: 0 for no effect and ±100 for the full control effect; potency is the fitted concentration of half-maximal effect.

CN1C[C@@H](C(=O)N[C@@]2(C)O[C@]3(O)C4CCCN4C(=O)[C@@H](Cc4ccccc4)N3C2=O)C=C2c3cccc4[nH]cc(c34)C[C@@H]21 (some centres not stated) was read as HPGD inh -30.0%.
For Nc1ccccc1C(=O)c1ccccc1 the results were HPGD inh -16.7%.
`C=CCN1C(=O)NC(=O)/C(=C/c2cccn2C)C1=O` gave HPGD inh -22.9%.
`O=C(C(Cc1ccccc1)NS(=O)(=O)c1cccc2nsnc12)N1CCC2(CC1)OCCO2` (configuration not stated) gave HPGD inh -5.8%.
Screening CCCC(C)(COC(N)=O)COC(N)=O returned HPGD inh -4.6%.
`CC1C(=O)OC2CCN3CC=C(COC(=O)[C@](C)(O)[C@]1(C)O)C23` (some centres not stated) gave HPGD inh -1.0%.
O=C(Cn1c(=O)c(C(F)(F)F)nc2ccccc21)N1CCC2(CC1)OCCO2 was read as HPGD inh -19.5%.
CN1CCc2c(c(N3CCCCC3)nc3n[nH]c(N)c23)C1 was read as HPGD inh -8.4%.
Screening CC(C)CON=O returned HPGD inh -0.9%.
Screening Cl/C=C/CCl returned HPGD inh -5.4%.
Screening Cn1c(=O)c(Oc2ccc(F)cc2)c(O)c2ccccc21 returned HPGD inh inconclusive.
For O=[N+]([O-])c1ccc(N2CCNCC2)cc1NC1CC1 the results were HPGD inh -13.6%.
COc1cc(OC)cc(C(=O)Nc2ccc(Br)cc2C(=O)c2ccccc2)c1 was read as HPGD inh -12.9%.
For CC(C)Oc1cc(-n2c(=S)[nH]c3ccccc3c2=O)c(Cl)cc1Cl the results were HPGD inh 6.2%.
Screening CCCC(C)(COC(N)=O)COC(=O)NC(C)C (configuration not stated) returned HPGD inh -3.9%&-9.3%&-4.0%&-1.8%.
`O=c1c2ccccc2nc(CNCc2ccco2)n1-c1ccc(F)cc1` gave HPGD inh -5.3%.
Screening N#CC(C#N)=Cc1ccc(-c2ccccc2F)o1 returned HPGD inh -2.5%.
O=[N+]([O-])c1ccc(NCCO)c2ncccc12 was read as HPGD inh -15.0%.
O=P(O)(OP(=O)(O)c1ccccc1)c1ccccc1 (tested in a mixture with another compound) was read as HPGD inh -8.6%.
CC(C)c1cccc(C(C)C)c1OCCn1ccnc1 was read as HPGD inh -3.1%.
`Cc1c(N=Cc2c(O)n(Cc3ccco3)c(=O)[nH]c2=O)c(=O)n(-c2ccccc2)n1C` gave HPGD inh -19.4%.
`Cc1ccc(C2CC(=O)C(C=NCCN3CCN(C(=O)Cc4ccccc4)CC3)=C(O)C2)cc1` (configuration not stated) gave HPGD inh -16.0%.
For Cc1ccc(OCC(=O)N2CCN(CC3CC4C=CC3C4)CC2)cc1 (configuration not stated) the results were HPGD inh -5.5%.
CC(=O)C1(c2ccccc2)CCNCC1 was read as HPGD inh -4.8%.
CN(C)CC#CCC(O)(c1ccccc1)C1CCCC1 (configuration not stated) was read as HPGD inh 1.7%.
Screening CC(C)C(=O)N1CCN(CCN=Cc2c(O)n(C)c(=O)n(C)c2=O)CC1 returned HPGD inh -18.9%.
Screening c1ccc2c(NC3=NCCS3)cccc2c1 returned HPGD inh 1.0%.
`CC(c1ccccc1)n1cncc1C(=O)N1CCCC1=O` (configuration not stated) gave HPGD inh -7.2%.
Screening O=c1[nH]c(=O)n(CCC2=CCCCC2)c(O)c1C=Nc1cccc(F)c1 returned HPGD inh 31.1%[activator].
Screening Cc1ccccc1-n1c(O)c(/C=N/c2nccs2)c(=O)[nH]c1=O returned HPGD inh -12.2%.
`C=C(CC1(C(C)NP(=O)(c2ccccc2)c2ccccc2)CC1)c1ccccc1` (configuration not stated) gave HPGD inh -11.6%.
`COc1ccc2nc(NC3=NCCN3)sc2c1` gave HPGD inh -3.8%.
`O=c1c2cc([N+](=O)[O-])ccc2nc(CN2CCOCC2)n1-c1ccccc1F` gave HPGD inh -10.2%.
`CCOC(C(=O)OCCC[N+](C)(CC)CC)(c1ccccc1)c1ccccc1` gave HPGD inh 2.2%.
For Clc1ccccc1 the results were HPGD inh -8.8%.
Screening COc1ccc(OC)c(C(O)C(C)N)c1 (configuration not stated) returned HPGD inh -1.7%&-10.0%&-1.0%.
Screening O=C(Cl)OCc1ccccc1 returned HPGD inh -7.1%.
OC(C#CCN1CCOCC1)(c1ccccc1)C1CCCC1 (configuration not stated) was read as HPGD inh 7.1%.
For O=C(CNS(=O)(=O)c1ccc(Br)s1)N1CCC2(CC1)OCCO2 the results were HPGD inh -5.6%.
For O=C(CN1CCOCC1)c1cccc2ccccc12 the results were HPGD inh -8.8%.
OCC(O)[C@H]1O[C@@H]2O[C@H](C(Cl)(Cl)Cl)O[C@@H]2[C@H]1O (some centres not stated) was read as HPGD inh 1.1%.
`O=c1[nH]c(=O)n(C2CCCCC2)c(O)c1C1NCCc2ccccc21` (configuration not stated) gave HPGD inh -12.6%.
For CC1(C)C(O)CC(O)[C@]2(C)C1CC(O)[C@]1(C)C2CC[C@@]2(C)C(c3ccoc3)OC(=O)C3O[C@]312 (some centres not stated) the results were HPGD inh -0.8%.
Screening CN(C)[C@@H]1C(=O)C(C(N)=O)=C(O)[C@@]2(O)C(=O)C3=C(O)c4c(O)cccc4[C@@](C)(O)[C@H]3[C@H](O)[C@@H]12 returned HPGD inh 7.08µM*.
Cc1nc2ccccc2c(=O)n1-c1ccccn1 was read as HPGD inh 3.1%.
For CCOC(=O)c1c(C)[nH]c(C(=O)C(Cc2ccccc2)N(C)C)c1C (configuration not stated) the results were HPGD inh -26.4%.
Screening O=P(OCC(F)(F)C(F)F)(N1CCOCC1)N1CCOCC1 returned HPGD inh 0.9%.
For CCN(CC)CCNC(=O)c1c(O)c2ccccc2n(Cc2ccccc2)c1=O the results were HPGD inh -22.9%.
For CCOC(=O)C1OC1(C)c1ccccc1 (configuration not stated) the results were HPGD inh -6.5%.
For c1ccc([C@H]2CNCc3ccccc32)cc1 the results were HPGD inh 0.4%.

Quoted at random: 3 entries already listed.
O=P(O)(OP(=O)(O)c1ccccc1)c1ccccc1 (tested in a mixture with another compound) was read as HPGD inh -8.6%.
CN(C)CC#CCC(O)(c1ccccc1)C1CCCC1 (configuration not stated) was read as HPGD inh 1.7%.
For Cc1ccc(OCC(=O)N2CCN(CC3CC4C=CC3C4)CC2)cc1 (configuration not stated) the results were HPGD inh -5.5%.

Next part.
Screening CCC(=NCc1ccco1)c1c(O)n(C2CCCCC2)c(=O)[nH]c1=O returned HPGD inh -12.3%.
Screening Nc1ccc(Cl)cc1N returned HPGD inh -18.2%.
`Cc1ccc(C2C(S(C)(=O)=O)=C(O)C(=O)N2c2ccccc2)cc1` (configuration not stated) (tested in a mixture with another compound) gave HPGD inh 0.2%.
For CCC(=NCCCN(C)C)c1c(O)n(-c2ccc(OC)cc2)c(=O)[nH]c1=O the results were HPGD inh -5.4%.
For COc1ccc(C2SCC(=O)Nc3c2c(C)nn3C2CCOC(C)(C)C2)cc1 (configuration not stated) the results were HPGD inh -3.8%.
For O=C(O)Cc1ccccc1 the results were HPGD inh -0.7%.
Cn1c(O)c(C=NCc2ccco2)c(=O)n(C)c1=O was read as HPGD inh -6.5%.
`C=CCn1c(O)c(C=NCCN(C)C)c(=O)[nH]c1=O` gave HPGD inh -10.0%.
O=C1C2CCCC1C(N1CCCC1)CC2 (configuration not stated) was read as HPGD inh -7.9%.
For OCCOCCO the results were HPGD inh -5.4%.
For CCc1ccc(N2C(=O)NC(=O)C(Cc3ccc(OC)cc3OC)C2=O)cc1 (configuration not stated) the results were HPGD inh -6.4%.
O=c1[nH]c(=O)n(Cc2ccc(F)cc2)c(O)c1C=NCCCN1CCOCC1 was read as HPGD inh -6.9%.
Screening CC12CN3CC(C)(CN(C1)C3c1cccnc1)C2=O (configuration not stated) returned HPGD inh 0.7%.
Screening O=c1cccc2n1CC1CC2CN2CCCCC12 (configuration not stated) returned HPGD inh -4.1%.
O=C(Cc1ccccc1)Oc1cccc(N2C(=O)CCC2=O)c1 was read as HPGD inh -8.4%.
For Cc1cccc(CS(=O)(=O)Cc2ccc(C(=O)N3CCC4(CC3)OCCO4)o2)c1 the results were HPGD inh -3.2%.
For O=C1C=CC[C@@H]2[C@H]3CCCN4CCC[C@@H](CN12)[C@@H]34 the results were HPGD inh -4.0%.
`O=c1[nH]c(=S)[nH]c(O)c1CN1CCCCC1` gave HPGD inh -0.6%.
Screening CCOC(=O)C1=C(N)Oc2cc(C)oc(=O)c2C12C(=O)N1c3c(cc(OC)cc32)C(C)=CC1(C)C (configuration not stated) returned HPGD inh -2.6%.
Screening CCCCn1c(O)c(C(C)=NCCCn2ccnc2)c(=O)[nH]c1=O returned HPGD inh -7.0%.
`O=C1C=CC(=O)c2c(O)cccc21` gave HPGD inh 14.1µM*.
O=C(COc1ccc(Cl)cc1Cl)N1CCN(C/C=C/c2ccccc2)CC1 was read as HPGD inh -7.3%.
CCOCCCN=Cc1c(O)n(Cc2ccccc2)c(=O)[nH]c1=O was read as HPGD inh inconclusive.
Screening O=c1[nH]c(=S)n(Cc2ccco2)c(O)c1C=NCc1cccs1 returned HPGD inh 25.1µM*.
For CC(C)NP(=O)(NC(C)C)OP(=O)(NC(C)C)NC(C)C the results were HPGD inh 4.2%.
Screening Cc1cccc(CNCCc2ccccc2)n1 returned HPGD inh 0.6%.
For CN(C(=O)Oc1ccc(C(=O)c2ccc(Cl)cc2)cc1)c1ccccc1 the results were HPGD inh -13.9%.
For CN1C(=O)NC(=O)C2(Cc3ccccc3N3CCOCC32)C1=O (configuration not stated) the results were HPGD inh 3.3%.
Screening O=C(c1cc2nc(-c3ccccc3)cc(-c3ccccc3)n2n1)N1CCC2(CC1)OCCO2 returned HPGD inh inconclusive.
`CCOC(=O)c1cncn1[C@@H](C)c1ccccc1` gave HPGD inh -4.3%.

In the list so far, these have an aryl methoxy group.
COc1cc(OC)cc(C(=O)Nc2ccc(Br)cc2C(=O)c2ccccc2)c1 was read as HPGD inh -12.9%.
`COc1ccc2nc(NC3=NCCN3)sc2c1` gave HPGD inh -3.8%.
Screening COc1ccc(OC)c(C(O)C(C)N)c1 (configuration not stated) returned HPGD inh -1.7%&-10.0%&-1.0%.
For CCC(=NCCCN(C)C)c1c(O)n(-c2ccc(OC)cc2)c(=O)[nH]c1=O the results were HPGD inh -5.4%.
For COc1ccc(C2SCC(=O)Nc3c2c(C)nn3C2CCOC(C)(C)C2)cc1 (configuration not stated) the results were HPGD inh -3.8%.
For CCc1ccc(N2C(=O)NC(=O)C(Cc3ccc(OC)cc3OC)C2=O)cc1 (configuration not stated) the results were HPGD inh -6.4%.
Screening CCOC(=O)C1=C(N)Oc2cc(C)oc(=O)c2C12C(=O)N1c3c(cc(OC)cc32)C(C)=CC1(C)C (configuration not stated) returned HPGD inh -2.6%.

Other results.
`CCC(C)n1c(O)c(C(c2ccccn2)c2c(O)n(C(C)CC)c(=S)[nH]c2=O)c(=O)[nH]c1=S` (configuration not stated) gave HPGD inh 31.6µM*.
For CC(C)C/C(=N/O)c1c[nH]c2ccccc12 the results were HPGD inh -9.1%.
`O=C(c1ccc(Cl)cc1)C12CN3CN(CN(C3)C1)C2` gave HPGD inh -8.1%.
`CCCCn1c(NC(=O)c2ccc(Br)o2)c(C(=O)OCC)c2nc3ccccc3nc21` gave HPGD inh inconclusive.
[Cl][Pd][Cl].[S-]C1=C2N=CN[C-]2[NH+]=C[N-]1.[S-]c1ncnc2[nH]cnc12 was read as HPGD inh 0.6%.
CN(C)C(Cc1ccccc1)C(=O)c1ccccc1 (configuration not stated) was read as HPGD inh -12.9%.
For CC[C@@H](CO)NC(=O)[C@H]1C=C2c3cccc4[nH]cc(c34)C[C@H]2N(C)C1 the results were HPGD inh inconclusive.
CCn1c(=O)cc(SCC(=O)N2CCC3(CC2)OCCO3)c2ccccc21 was read as HPGD inh -25.4%.
For c1csc(CN2CCC3(CCNCC3)CC2)n1 the results were HPGD inh -7.7%.
For COc1ccc(N(CC(=O)Nc2cccc(SC)c2)S(C)(=O)=O)cc1Cl the results were HPGD inh inconclusive.
`Cn1c2ccccc2c2c(C(=O)N3CCC4(CC3)OCCO4)cn(C3CCCCC3)c(=O)c21` gave HPGD inh inconclusive.
For O=C(CSC1c2ccccc2-c2ccccc21)N/N=C/c1ccccc1O the results were HPGD inh -28.5%.
COc1ccc(OC)c([C@H](O)[C@H](C)N)c1 was read as HPGD inh -2.5%.
`COc1ccc(C2=NCc3nnc(C)n3-c3ccc(Cl)cc32)cc1Cl` gave HPGD inh -26.4%.
Screening CC(=NCCN1CCOCC1)c1c(O)n(C2CCCCC2)c(=O)[nH]c1=O returned HPGD inh 0.3%.
`COc1ccc(OCC(=O)N2CCN(C3CCC(c4ccccc4)CC3)CC2)cc1` (configuration not stated) gave HPGD inh 1.5%.
For CC(C)(C)c1nc(NCc2ccc3c(c2)OCO3)c2nnn(Cc3ccccc3Cl)c2n1 the results were HPGD inh -23.8%.
NC[C@@H](CC(=O)O)c1ccc(Cl)cc1 was read as HPGD inh -5.0%&-6.7%.
`Cc1ccc(-n2nc(C)c3c2NC(=O)CSC3c2ccc3c(c2)OCO3)cc1` (configuration not stated) gave HPGD inh 17.8µM*.

High-throughput results: PubChem, National Center for Advancing Translational Sciences (NCATS)

Only part of the results is shown; rates above refer to the full screens.
